AID504770: E. coli YBA685 growth inhibition, screen for V. cholerae RctB inhibitors; 0.27% of 130,000 active; z-score (test concentration not listed); E. coli YBA685 rctB-dependent plasmid, OD600 growth, 3 h; stronger effect = lower value;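 active means z-score under -2 on both plates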;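 further: wells of about 30 µL received 100 nL stock; score is relative to mean and SD of the test wells; the first replicate is given; strong numbers were not always called active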
Ba CapD inh: blocks the Bacillus anthracis CapD enzyme; z-score (no concentration beside the values); purified CapD enzyme, fluorescence intensity read-out; stronger effect = lower value; some hits fall short of the stated cut; 0.23% of 140,000 active; AID 492967;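 active means z-score under -4 in either of two replicates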;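 further: stock transfer was 100 nL into about 40 µL; score is relative to mean and spread of the plate; one replicate is shown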
The depositor's hits bear a star; x = no result given; & = joins results of further samples. Not all compounds are listed; the hit share may differ from the screen's.

Molecule	AID504770	Ba CapD inh
O=C1c2ccccc2C(O)(c2ccccc2)N1CCc1ccccc1 (centres undefined)	-0.35	-0.62
COc1ccc(C(=O)/C(=N\O)c2ccccc2)cc1	-0.1	-0.35
CCCc1[nH]n(-c2ccc(F)cc2)c(=O)c1C=NCCN1CCN(C(C)=O)CC1	x	-0.34
CC(OC(=O)C1CCN(S(=O)(=O)c2ccc3c(c2)OCCO3)CC1)C(=O)Nc1ncc(Cl)cc1Cl (centres undefined)	-0.1	x
Nc1ccc(C(=O)OCC(=O)c2ccc(Br)cc2)c(O)c1	0.95	0.82
Clc1ncc(CN2CCOCC2)s1	0.65	-0.23
Cc1ccc(Cn2cc3c(n2)-c2c(oc(C(=O)NCCCN4CCN(c5ccc(F)cc5)CC4)c2C)CC3)cc1	-0.85	0.77
Cc1ccc(S(=O)(=O)n2c(SCc3ccccc3F)nc3ccccc32)cc1	x	0.46

(listing goes on)
Molecule	AID504770	Ba CapD inh
CC1CN(C(=O)Nc2ccc3snnc3c2)c2ccccc21 (centres undefined)	-0.25	0.13
Cc1ccc(S(=O)(=O)Nc2cccc3ccc(-n4nc(C)cc4C)nc23)cc1	-0.8	0.33
O=C(c1c(F)cccc1F)N1CCC(c2c[nH]c3ccccc23)CC1	x	-0.6
Cc1ccc2c(=O)c(C(=O)c3ccccc3)c[nH]c2n1	0.5	-0.61
COc1ccc2oc(=O)cc(CN(C)c3c(C)cccc3C)c2c1	-0.45	0.93
Cc1ccc(C2C3=C(COC3=O)Nc3c2c(=O)n(C)c(=O)n3C)cc1 (centres undefined)	0.05	x
CCCCNC(=O)c1cn(CC)c2ccc(S(=O)(=O)N3CCCC3)cc2c1=O	0	0.28
Cc1cc(-c2nnc(SCC(=O)c3cc4ccccc4oc3=O)o2)no1	0.5	x

Later entries:
Molecule	AID504770	Ba CapD inh
O=S(=O)(c1cccc(C(F)(F)F)c1)N1CCC(N(C2CC2)S(=O)(=O)c2ccc(Cl)cc2)CC1	x	-0.57
C=CCSc1[nH]c(=O)c(C(=O)OCC)cc1C(N)=O	0.1	6.1
OCCCc1cn[nH]c1C(F)(F)F	-1.2	0.12
S=C(NCc1cccnc1)Nc1ccc(Cl)c(Cl)c1	x	-1
Cc1cc(/C=C2/C(=N)N3C=CSC3=NC2=O)c(C)n1-c1ccccc1	-0.3	1.1
c1ccc(CSC23CC4CC(CC(C4)C2)C3)cc1	-1.1	1
CCOC(=O)Cc1csc(NC(=O)CSc2nc(N)c3c4c(sc3n2)CCCC4)n1	-0.1	x
COC(=O)c1ccc(Nc2nc3ccc(C)cc3n3cnnc23)cc1	0.4	10

More entries:
Molecule	AID504770	Ba CapD inh
Nc1nc(-c2ccccc2Cl)cs1	x	0.42
O=C(CC1SCCNC1=O)Nc1ccc(Cl)c(Cl)c1 (centres undefined)	0.95	-0.56
Nc1c(N(C(=O)C2CCCO2)C2CCCC2)c(=O)[nH]c(=O)n1Cc1ccccc1 (centres undefined)	0	x
COc1cc2c(cc1OC)CN(C(=O)CCC(=O)O)CC2	1.3	x
CCOC(=O)C1CCCN(C(=O)COc2ccc3oc4ccccc4c3c2)C1 (centres undefined)	-0.4	x
O=c1/c(=C\c2ccc(OCc3c(F)cccc3Cl)cc2)sc2nc3ccccc3n12	x	0.47
N#CC1(C#N)[C@@H]2c3ccccc3C=CN2[C@@H](C(=O)C23CC4CC(CC(C4)C2)C3)[C@@H]1c1cccnc1	x	-0.24
CC(Oc1ccccc1)C(=O)N1CCCC1 (centres undefined)	-0.35	x

The list goes on.
Molecule	AID504770	Ba CapD inh
N#Cc1c(C(F)(F)F)cc(-c2ccccc2)nc1SCC(=O)Nc1ccc(C(N)=O)cc1	x	3
O=C1CCCC2=C1C(c1cccc(O)c1)C1=C(CCCC1=O)O2	x	-0.22
CCC(=O)N1c2ccc(S(=O)(=O)NC(C)C)cc2CC1C (centres undefined)	-0.05	-0.15
Cc1onc(-c2ccccc2)c1C(=O)NCCc1ccccc1	-0.05	0.12
COCCOC(=O)C1=C(N)Oc2c(c(=O)oc3ccccc23)C1c1ccncc1 (centres undefined)	x	-0.48
Cc1ccc2nc(SCC(=O)N(C)C3CCCCC3)c(C#N)cc2c1	0.25	x
COc1ccccc1NC(=O)C(c1ccccc1)N1CCOCC1 (centres undefined)	-0.15	0.33
COc1ccccc1NC(=S)NC1CC2CCC1C2 (centres undefined)	-0.45	0.22

Next part:
Molecule	AID504770	Ba CapD inh
CN1C[C@H](CO)C=C2c3cccc4[nH]cc(c34)C[C@H]21	x	-0.16&-1.7
COC(=O)c1cnn2c(=O)c3c(n(C)c12)CCN(Cc1ccccc1)C3	0.2	14
CC(C)NC(=S)NNc1ccccc1C(F)(F)F	1.5	x
Cc1cccc(C)c1Nc1c(-c2ccsc2)nc2sccn12	-0.4	0.35
COc1cccc(I(OC(C)=O)OC(C)=O)c1	2.2	-0.71
CC1(C)CC(=O)C2=C(C1)OC1=C(C(=O)CC(C)(C)C1)C2c1ccc([N+](=O)[O-])cc1	x	-0.62
Cc1cc(C)c2sc(N3CCCC3)nc2c1	1.7	0.18
Cc1cc(Cl)ccc1OCCCC(=O)NN1CCOCC1	1.9	-0.48

The list goes on.
Molecule	AID504770	Ba CapD inh
Cn1nc(-c2ccccc2)c(CO)c1Sc1ccc(Br)cc1	x	0.14
CC(=O)OCC1OC(n2ncc(=O)n(Cc3ccccc3)c2=O)C(OC(C)=O)C1OC(C)=O (centres undefined)	x	-0.42
NC(=O)Cn1c(CN2CCCC2c2ccc3c(c2)OCCCO3)nc2ccccc2c1=O (centres undefined)	0.05	x
Cc1ccc2nc(Nc3ccc(Cl)cc3)c(/C=N/O)c(=O)n2c1	-0.85	-0.36
CC1=C(C(=O)OCCOc2ccccc2)C(c2cccc(Oc3ccccc3)c2)NC(=O)N1 (centres undefined)	x	-0.51
CC1=C(C(=O)OC2CCCCC2)C(c2cc3c(cc2Br)OCO3)NC(=O)N1 (centres undefined)	x	-0.49
FC(F)n1c(=S)[nH]c2ccccc21	-1.1	x
N#CC(c1ccc(O)cc1)N1CCCCC1 (centres undefined)	x	-0.78

7 compounds out of the list, sorted by number of heavy atoms, rising.
Molecule	AID504770	Ba CapD inh
Cc1cc(C)c2sc(N3CCCC3)nc2c1	1.7	0.18
Cc1cc(Cl)ccc1OCCCC(=O)NN1CCOCC1	1.9	-0.48
Cn1nc(-c2ccccc2)c(CO)c1Sc1ccc(Br)cc1	x	0.14
Cc1ccc2nc(Nc3ccc(Cl)cc3)c(/C=N/O)c(=O)n2c1	-0.85	-0.36
CC1=C(C(=O)OC2CCCCC2)C(c2cc3c(cc2Br)OCO3)NC(=O)N1 (centres undefined)	x	-0.49
NC(=O)Cn1c(CN2CCCC2c2ccc3c(c2)OCCCO3)nc2ccccc2c1=O (centres undefined)	0.05	x
CC1=C(C(=O)OCCOc2ccccc2)C(c2cccc(Oc3ccccc3)c2)NC(=O)N1 (centres undefined)	x	-0.51

More entries follow:
Molecule	AID504770	Ba CapD inh
COc1ccc2ccccc2c1S(=O)N1CCN(c2ccccc2F)CC1 (centres undefined)	x	-0.055
O=C(NC1CCCCC1)Sc1ccc(Cl)cc1	-0.25	x
Cc1nnc(SCC(=O)N2c3ccccc3Sc3ccccc32)n1N	0.2	-0.035
COc1ccc(OC)c(-c2csc(=Nc3cccnc3)n2Cc2ccco2)c1	-0.1	x
CN(CCc1ccccn1)C(=O)c1cccc(OC(F)F)c1	-0.6	x
Cc1cc(Nc2ccccc2)n(CCC#N)n1	-0.1	-0.78
CC(C)c1ccc(C2Nc3cccc4cccc(c34)C(=O)CS2)cc1 (centres undefined)	x	0.15
O=C1Nc2ccc(Br)cc2C(c2ccccc2)=NC1O (centres undefined)	x	0.13

(list continues)
Molecule	AID504770	Ba CapD inh
O=C1/C(=C/c2ccc(Cl)cc2)CCC/C1=C\c1ccc(Cl)cc1	x	0.025
Cc1ccc(C)c(N=C(NOCc2ccc(Cl)cc2)c2nonc2N)c1	x	0.065
O=C(CC1=NS(=O)(=O)c2ccccc2N1)NCCc1c[nH]c2ccccc12	0.15	-0.4
CCC(c1nnnn1CCc1ccccc1)N(Cc1ccco1)Cc1cc2cc(C)ccc2[nH]c1=O (centres undefined)	0.6	x
Cc1cc(NCCNc2ccccc2)c2ccc3ccccc3c2n1	0.95	-0.14
Cc1noc(C2CCCNC2)n1 (centres undefined)	-1.4	x
O=P1(NCCO)C=C(c2ccccc2)OC(c2ccccc2)=C1	-0.85	x
O=C(COC(=O)c1ccccc1NC(=O)c1ccco1)Nc1ccccc1	-0.5	x

(list continues)
Molecule	AID504770	Ba CapD inh
Cc1ccc(-c2nc3ccc(S(N)(=O)=O)cc3[nH]2)s1	2.7	x
COC(=O)C1C(=O)CC(=O)CC1c1ccco1 (centres undefined)	1.2	-0.29
CC1(C)CC(=O)C2=C(C1)OC1=C(C2)C(=O)CC(C)(C)C1	0.05	x
CC1SC(C)C(=O)N(CC(=O)Nc2ccc3c(c2)OCCO3)C1=O (centres undefined)	-0.75	x
O=C(C1CCN(S(=O)(=O)c2cccc3nonc23)CC1)N1CCCC1	-0.3	-0.21
CC(=O)Nc1cccc(-c2nnc(SCc3cccc(Cl)c3)n2C)c1	-0.1	0.46
CC(c1ccccc1)N1Cc2ccccc2C1 (centres undefined)	-1.1	-0.67
O=C(NCc1cccnc1)c1cc(-c2ccccn2)nc2ccccc12	0.2	5.1

Continuation:
Molecule	AID504770	Ba CapD inh
CC(C)(C)c1cc(C(=O)OCCN2CCCCC2)cc(C(C)(C)C)c1	-0.6	0.81
Cc1cc(S(=O)(=O)NCCc2ccccc2)c(C)s1	1.8	-0.17
CC(C)N(Cc1ccccc1)C(=O)c1ccc2c(c1)OCO2	-0.25	-0.55
CCOC(=O)NC(=O)c1cn(Cc2cccs2)c(=O)n(C)c1=O	0.6	0.015
CCN1C(=O)/C(=c2/s/c(=C3\SC(C)=C(C)N3CC)c(=O)n2CC)N(C)C1=S	-0.45	x
CC(C)(C)C(=O)N1CCCC1C(=O)Nc1ccccc1 (centres undefined)	-0.1	0.4
O=C(NCc1ccccc1)N1c2ccccc2Sc2ccccc21	-0.65	8.7
Cc1ccccc1N(CC(=O)N1CCOCC1)S(C)(=O)=O	-0.35	0.21

Further compounds follow:
Molecule	AID504770	Ba CapD inh
COc1ccc(O)c(C(C)=O)c1	x	-0.42
CC1=[N+]([O-])C(C)(C)CC(C)c2ccccc21 (centres undefined)	-0.55	0.32
CCOP1(=S)Oc2cc(Cl)ccc2C(C(F)(F)F)(C(F)(F)F)O1 (centres undefined)	0.05	1.7
Cc1c(-c2ccccc2)nc2ccccc2c1C(=O)O	1.2	x
CCn1c2ccccc2c2cc(NC(=O)CSc3nncn3C)ccc21	-0.25	2.4
O=C(CC12CC3CC(CC(C3)C1)C2)N1CCCC1CO (centres undefined)	0.65	x
COc1ccc2nc(C(=O)O)sc2c1	0.35	26
CN(C)c1cccc(C(=O)OCc2cc(=O)oc3cc(O)ccc23)c1	2.3	x

(listing goes on)
Molecule	AID504770	Ba CapD inh
Cc1ccc(C2=CC(c3ccccc3)SC(N)=N2)cc1 (centres undefined)	-0.15	-0.48
O=C(Nc1ccc(OC(F)(F)F)cc1)Oc1ccccc1N1CCOCC1	-0.4	0.77
COc1ccc(CCC(=O)Nc2ccc3nc4n(c(=O)c3c2)CCCC4)cc1	0.85	1.9
Cc1cc2occ(CC(=O)Oc3ccc4c(c3)OCO4)c2cc1C	0.4	x
CCN(C(=O)c1cnccc1C(F)(F)F)c1c(C)cccc1C	0.3	0.18
O=C1CCc2cc(C(=O)CSc3ccc(Cl)cc3Cl)ccc2N1	2.9	-2.2
O=C(CN1C(=O)COc2ccc(Cl)cc21)N1CCc2ccccc21	-0.8	-0.47
CS(=O)(=O)Nc1ccccc1C(=O)OCC(=O)Nc1ccccc1C(F)(F)F	-0.15	x

Other results.
Molecule	AID504770	Ba CapD inh
O=C(NC1CC2CCC1CC2)c1ccccc1 (centres undefined)	-0.2	-1.1
Cc1c(C#N)sc(C#N)c1O	x	-1.2
CCN1CCN(C(C)C(=O)N(C(C)C)C(C)C)CC1 (centres undefined)	1.9	x
O=C(COc1ccccc1)Nc1ccc2[nH]c(=O)[nH]c2c1	0.65	x
COc1ccc(N/C=C(/C#N)c2cccs2)cc1	-0.1	-1.9
CCOc1ccc2nc(N3CCC(C(=O)N4CCCCC4)CC3)sc2c1	0.5	0.98
O=C(CC1OC(=O)c2ccccc21)c1cc(O)ccc1O (centres undefined)	-1.2	x
CC(C)(C)c1csc(-c2ccc(-n3cncn3)nc2)n1	0.4	47

Next compounds:
Molecule	AID504770	Ba CapD inh
CC1(C)Cc2nc3[nH]c(=S)n(Cc4ccccc4)c(=O)c3cc2CO1	x	-0.14
CC(C)OC(=O)Cc1csc(-c2ccc(Oc3ccc(C(F)(F)F)cn3)cc2)n1	-0.25	12
Cc1ccc2nc(C)c3cc(C)oc3c2c1	2.1	11
CN1C2CCC1CC(NC1CCCCC1)C2 (centres undefined)	1.2	0.48
COc1ccc(COC(=O)C2=C(C)NC(=O)NC2c2cc(OC)ccc2OC)cc1 (centres undefined)	x	0.36
O=C(c1ccc(Cl)cc1)N1CCCC(C(=O)N2CCCc3ccccc32)C1 (centres undefined)	0.1	x
C=CCONC(=O)c1cc(OCC(F)(F)F)ccc1OCC(F)(F)F	x	0.32
C#C/C=C/COC(=O)NNC(=O)Cc1ccc(OC)cc1OC	x	-0.49
Cc1ccc(CNC(=O)C2c3ccccc3C(=O)N3CCc4ccccc4C23)cc1 (centres undefined)	x	1.6

Compound profiles, as listed above:
CN1C2CCC1CC(NC1CCCCC1)C2 (centres undefined) is listed as AID504770: 1.2; Ba CapD inh: 0.48
O=C(c1ccc(Cl)cc1)N1CCCC(C(=O)N2CCCc3ccccc32)C1 (centres undefined) is listed as AID504770: 0.1; Ba CapD inh: x
